# Autofluor counter = compound fluorescence in toxin protease inhibitor counterscreen; fluorescence intensity (no concentration beside the values); 360,000 compounds, 3.1% hits; compound autofluorescence counterscreen, microsphere flow cytometry; stronger effect = higher value;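 active means at least 3 SD above the mean of all compounds, about 16000 in these data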;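 further: 100 nL of 1 mM stock went into each well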
# RN4220 kill = S. aureus RN4220 growth inhibition; OD600, 16 h; inhibition, % (test concentration not listed); 330,000 compounds, 0.33% hits; AID 1259311;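 active means z-score of -3 or lower and OD600 up to 0.18 on both plates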;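 further: plate controls were untreated cells for no effect and reference antibiotic for full effect; stock transfer was 100 nL into about 80 µL; one replicate is shown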
# BJeLR viability = kills HRASV12-expressing BJeLR cells; BJeLR (HRASV12) viability, CellTiter-Glo ATP luminescence, 48 h; reference of the scale not given here; inhibition, % (no concentration beside the values); 300,000 compounds, 0.17% hits; AID 1554;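 active means replicate mean above 50%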;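 further: 50 nL library stock added to about 25 µL; numbers are from one replicate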
# PrP UTR inh = suppresses PrP 5' UTR mRNA reporter expression; cell-based PrP 5' UTR mRNA reporter, plate reader; inhibition, % (no concentration beside the values); 340,000 compounds, 0.35% hits; AID 488862;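 active means every replicate at 50% or more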;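 further: 0 = median of the neutral control wells; tested in H4 reporter cells; numbers are from one replicate; inactives centre near -14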
# Mtb hypoxia inh = Mtb hypoxia fluorescent reporter inhibition; M. tuberculosis hypoxia-regulated fluorescent reporter, fluorescence; fluorescence inhibition, % (concentration not given with the values); 300,000 compounds, 0.1% hits; AID 1159583;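 active means 35 to 45% if threefold the growth effect, above 45% if 1.5-fold the growth effect; inactive means the rest, general growth blockers included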;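 further: wells of about 50 µL received 100 nL stock; 0% = vehicle wells and 100% = reference inhibitor wells; whole bacteria with a GFP reporter of the hypoxia response; strong numbers were not always called active; many hits fall short of the cut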
# Sa ugtP lethal = kills S. aureus RN4220 lacking UgtP; 330,000 compounds, 0.54% hits; growth inhibition, % (concentration not given with the values); S. aureus RN4220 ugtP deletion, OD600 growth, 16 h; some inactives read as strong as hits; AID 1259309;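 active means z-score under -3 and OD600 up to 0.15 on both plates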;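 further: plate controls were untreated wells for no effect and antibiotic for full effect; wells of about 80 µL received 100 nL stock; the first replicate is given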
# Mtb hypoxia inh growth = further read-out of Mtb hypoxia inh, marked with its call; growth inhibition, %; measured here: M. tuberculosis growth (absorbance);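 0% = vehicle and 100% = reference antibiotic; read after six days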
# The depositor's hits bear a star; · = not tested or not shown. No enrichment for hits. About 4.1% of those tested had a hit in this group.
# Preview (three entries):
cpd	Structure	Autofluor counter	RN4220 kill	BJeLR viability	PrP UTR inh
1	COc1ccc(CN(C)c2ccc(S(=O)(=O)N3CCN(C)CC3)cc2[N+](=O)[O-])cc1OC	3621	2.3	·	-24
2	Cc1ccc(C(COc2ccccc2O)=NO)cc1	·	7.1	·	·
3	CC(C)N(Cc1ccccc1)C(=O)CN1c2cccc3cccc(c23)S1(=O)=O	3517	3.9	·	-3

cpd	Mtb hypoxia inh	Mtb hypoxia inh growth	Sa ugtP lethal
1	-6	2	0
2	14	4	2
3	6	10	4

# The listing, from the first entry:
cpd	Structure	Autofluor counter	RN4220 kill	BJeLR viability	PrP UTR inh
1	COc1ccc(CN(C)c2ccc(S(=O)(=O)N3CCN(C)CC3)cc2[N+](=O)[O-])cc1OC	3621	2.3	·	-24
2	Cc1ccc(C(COc2ccccc2O)=NO)cc1	·	7.1	·	·
3	CC(C)N(Cc1ccccc1)C(=O)CN1c2cccc3cccc(c23)S1(=O)=O	3517	3.9	·	-3
4	O=C1c2ccccc2C2(c3ccccc3)NCCCN12 (configuration not stated)	3908	7.3	8	-13
5	CCN(CC)c1ccc2cc(C(=O)O)c(=O)oc2c1	·	-0.8	9	12
6	C[C@H](CO)N1C[C@H](C)[C@@H](CN(C)Cc2ccc(Cl)c(Cl)c2)Oc2c(NS(=O)(=O)c3ccc(F)cc3)cccc2C1=O	3232	-11	·	-24
7	CCCCn1c(N)c(N(CC(C)C)C(=O)c2ccc(N3C(=O)CCC3=O)cc2)c(=O)[nH]c1=O	·	3.1	6	-23
8	CCCCC(Sc1nc(N)c(NC(=O)c2ccc(OC)cc2)c(=O)[nH]1)C(=O)O (configuration not stated)	2551	6.1	-2	-24
9	CCCC(=O)Nc1ccc(-c2csc(NNC(C)=O)n2)cc1	4363	7.1	-12	-4
10	COc1ccc(C)cc1NC(=O)C(Sc1ccccc1)c1ccccc1 (configuration not stated)	·	7.6	-13	·
11	COc1ccc(N2CC(C(=O)O)CC2=O)cc1 (configuration not stated)	11264	1.5	-4	-15
12	COCCNC(=O)/C(C#N)=C/c1ccccc1Br	3358	6.8	15	-13

cpd	Mtb hypoxia inh	Mtb hypoxia inh growth	Sa ugtP lethal
1	-6	2	0
2	14	4	2
3	6	10	4
4	20	1	1
5	-3	-6	-4
6	2	6	-11
7	14	3	5
8	1	5	-3
9	0	-5	0
10	6	3	70
11	-3	-4	3
12	3	7	3

# Next part:
cpd	Structure	Autofluor counter	RN4220 kill	BJeLR viability	PrP UTR inh
13	C=CCc1cccc(C=NNC(=O)CNc2ccccc2)c1O	·	-7.1	·	·
14	O=C(NCC1CCCO1)C(c1ccccn1)N(Cc1ccccc1Cl)C(=O)CN1C(=O)c2ccccc2S1(=O)=O (configuration not stated)	4454	-3.9	0	-20
15	O=C(CSc1nc(O)c(C(c2ccccc2)c2ccccc2)c(=O)[nH]1)N1CCOCC1	3437	12	5	-11
16	COc1cc(C=NNC(=O)c2ccncc2)ccc1OC(=O)c1cccc(Br)c1	·	3.2	·	·
17	COc1cccc(CN(CC(=O)NC2CCCC2)C(=O)c2csnn2)c1	5445	2.3	-13	-5
18	CC1CCN(c2ccccc2NC(=S)NC(=O)c2ccco2)CC1	3338	-20	-11	-13
19	COc1cc(C=NN=C(N)N)ccc1OCc1ccc(Cl)cc1	·	9.6	·	·
20	CCOc1ccc(S(=O)(=O)Nc2ccc3c(c2)c2c(n3S(=O)(=O)c3ccc(OCC)cc3)CCCC2=O)cc1	·	-0.9	-9	·
21	C=CCOC(=O)C1=C[C@@H](c2ccccc2)C[C@@H](OCc2ccc(CO)cc2)O1	3881	·	-3	2
22	Cc1cc(C)c(S(=O)(=O)c2ccccc2C)c(SCC(C)C)n1	2022	5.2	3	-18
23	Cc1cnc(NC(=O)CSc2nnc(COc3c(C)cccc3C)o2)s1	5894	1.0	-9	2
24	CCC(=O)Nc1ccnc(-c2cccnc2)n1	12617	-3.0	-1	·

cpd	Mtb hypoxia inh	Mtb hypoxia inh growth	Sa ugtP lethal
13	12	10	-3
14	-6	-2	-6
15	3	4	11
16	19	4	10
17	-2	8	4
18	5	18	9
19	22	5	4
20	8	3	-3
21	·	·	·
22	·	·	74
23	·	·	0
24	5	4	-4

# Next part.
cpd	Structure	Autofluor counter	RN4220 kill	BJeLR viability	PrP UTR inh
25	O=C(Nc1ccc2c(c1)OCCO2)c1cccnc1	3837	11	-10	-29
26	Cc1ccc(/C=N/NC(=O)CC(=O)NCc2cccnc2)cc1	9832	·	-13	-29
27	COc1ccccc1C(=O)Nc1ccccc1N1CCOCC1	3107	7.1	8	-18
28	COc1cccc(NC(=O)C2CCN(S(=O)(=O)c3ccc4c(c3)C(C)(C)C(=O)N4C)CC2)c1	5757	-2.9	5	-31
29	O=C(Cc1ccccc1)NN=Cc1cc2c(cc1Cl)OCO2	·	-1.9	·	·
30	COc1ccccc1N1CCN(C(=O)c2cc3c(-c4ccc(Cl)cc4)nn(C)c3s2)CC1	4246	5.0	3	-2
31	O=C(CN1CCC(Cc2ccccc2)CC1)NC(=O)NCc1ccccc1	2464	1.9	-3	-14
32	Cc1cc(NS(=O)(=O)c2ccc(NC(=O)c3ccc([N+](=O)[O-])s3)cc2)nc(C)n1	5369	7.5	·	-18
33	COC(=O)CN1C(=O)N/C(=C/c2ccc(OC)c(C)c2OC)C1=O	4345	2.6	-2	-14
34	Clc1cccc(Cl)c1CSc1nnc2ccccn12	10361	6.6	-13	-17
35	CCN(CC)CCNC(=O)c1ccc(NC(=O)C2CC(=O)N(CCc3ccc(OC)c(OC)c3)C2)cc1 (configuration not stated)	3879	-0.4	·	-30
36	CC(C)CNC(=O)c1cccc(NC(=O)c2ccccc2-c2ccccc2C(=O)O)c1	3301	3.3	-7	-23

cpd	Mtb hypoxia inh	Mtb hypoxia inh growth	Sa ugtP lethal
25	·	·	15
26	·	·	·
27	7	3	4
28	-1	1	7
29	-2	2	0
30	·	·	-5
31	7	2	3
32	·	·	5
33	6	-3	-1
34	9	17	8
35	-5	4	-2
36	·	·	9

# Three entries already listed, arranged by SMILES length, ascending:
cpd	Structure	Autofluor counter	RN4220 kill	BJeLR viability	PrP UTR inh
25	O=C(Nc1ccc2c(c1)OCCO2)c1cccnc1	3837	11	-10	-29
19	COc1cc(C=NN=C(N)N)ccc1OCc1ccc(Cl)cc1	·	9.6	·	·
10	COc1ccc(C)cc1NC(=O)C(Sc1ccccc1)c1ccccc1 (configuration not stated)	·	7.6	-13	·

cpd	Mtb hypoxia inh	Mtb hypoxia inh growth	Sa ugtP lethal
25	·	·	15
19	22	5	4
10	6	3	70

# Remaining list, next part.
cpd	Structure	Autofluor counter	RN4220 kill	BJeLR viability	PrP UTR inh
37	Cn1c(=O)oc2cc(S(=O)(=O)N3CCCC(C(=O)NCc4ccc5c(c4)OCO5)C3)ccc21 (configuration not stated)	5029	-0.8	·	-12
38	CC(c1ccccc1)n1cnc2ccccc21 (configuration not stated)	3099	4.4	0	-5
39	CCc1ccc2cccc3c2c1N=CN3C	3636	4.1	-10	-20
40	COCCn1nnnc1SCC(=O)c1ccccc1	3506	3.6	0	-13
41	Nc1nc(C(=O)N2CCOCC2)nn1S(=O)(=O)c1ccccc1	4426	1.2	-1	-1
42	CC(OC(=O)c1cc(=O)[nH]c2ccccc12)C(=O)N1C(C)CCCC1C (configuration not stated)	3503	2.2	·	-14
43	CCOc1cc2c(cc1OCC)-n1cccc1C(c1ccc(OC)cc1)NC2 (configuration not stated)	3179	1.5	13	-5
44	CC(C)Oc1cccc(C(=O)Nc2ccc(CN3CCOCC3)cc2)c1	6455	-0.6	9	-28
45	Cc1cc(-c2onc(C)c2C(=O)O)no1	4542	0.6	1	-5
46	COC(=O)C(O)(CC(=O)Nc1ccc(Cl)cc1F)C(F)(F)F (configuration not stated)	10420	3.6	8	-6
47	CCN(CC(=O)NCc1cccs1)C(=O)c1cccc(S(=O)(=O)N2CCc3ccccc32)c1	4230	3.0	-3	-16
48	O=C1CCC[C@@H]2Cc3[nH]c4c(Cl)ccc(Cl)c4c3[C@@H]3CCN1[C@H]23	4031	·	-3	-30

cpd	Mtb hypoxia inh	Mtb hypoxia inh growth	Sa ugtP lethal
37	-7	-3	-24
38	7	-2	18
39	6	-1	-5
40	·	·	13
41	3	6	3
42	2	12	3
43	6	-9	-1
44	-4	4	0
45	2	12	0
46	9	3	-1
47	6	3	7
48	·	·	·

# Laid out differently: results already given.
48) O=C1CCC[C@@H]2Cc3[nH]c4c(Cl)ccc(Cl)c4c3[C@@H]3CCN1[C@H]23
5) CCN(CC)c1ccc2cc(C(=O)O)c(=O)oc2c1
assay / compound	48	5
Autofluor counter	4031	·
RN4220 kill	·	-0.8
BJeLR viability	-3	9
PrP UTR inh	-30	12
Mtb hypoxia inh	·	-3
Mtb hypoxia inh growth	·	-6
Sa ugtP lethal	·	-4

# (list continues)
cpd	Structure	Autofluor counter	RN4220 kill	BJeLR viability	PrP UTR inh
49	Cc1cccc(C)c1NC(=O)N1C2CCC1CC(O)(c1cccnc1)C2 (configuration not stated)	4737	1.0	4	6
50	O=C(c1cc2cc(F)ccc2[nH]1)N1CCc2ccccc2C1	5786	3.0	-1	-18
51	CSc1ccc(CNc2nc3ccccc3n3cnnc23)cc1	4423	3.4	6	-19
52	O=C(COC(=O)c1ccc(S(=O)(=O)N2CCCCC2)cc1)Nc1ccccc1	6304	-2.1	·	-2
53	Cc1ccc(NNC(=O)c2cc(C)on2)c(C)c1	6151	3.6	0	-20
54	Cn1nc(-c2ccc(S(N)(=O)=O)s2)cc1C(F)(F)F	3460	-3.5	-9	-30
55	CN(C)c1ccc(/C=N\NC(=O)c2ccc(Cn3cc(Cl)cn3)cc2)cc1	2033	·	-5	-5
56	Cc1cc(C)nc(SCC(=O)Nc2sc3c(c2C#N)CCC(C)C3)n1 (configuration not stated)	2477	-3.8	3	-7
57	COc1ccc(CCNC(=O)CSc2nc3[nH]ncc3c(=O)n2-c2ccc(Br)cc2)cc1OC	4527	3.8	-8	-8
58	COc1ccc(S(=O)(=O)N2CC(=O)Nc3ccccc32)cc1	3035	-1.3	-1	8
59	Nc1ccc(-c2cc3ccccc3oc2=O)cc1	4282	3.7	7	85*
60	O=C(O)CC1S/C(=N/N=Cc2ccccn2)NC1=O (configuration not stated)	·	3.7	·	·

cpd	Mtb hypoxia inh	Mtb hypoxia inh growth	Sa ugtP lethal
49	0	5	4
50	6	3	-17
51	11	-1	0
52	1	-4	0
53	15	0	4
54	3	14	-6
55	·	·	·
56	·	·	-5
57	21	-9	5
58	-3	0	-3
59	5	-7	10
60	6	-4	0

# Following part
cpd	Structure	Autofluor counter	RN4220 kill	BJeLR viability	PrP UTR inh
61	CCC(=O)Nc1cccc(C2=NOC3(C2)CC(C(N)=O)N(C(=O)C(c2ccccc2)c2ccccc2)C3)c1 (configuration not stated)	·	2.2	·	·
62	Cc1ccc(S(=O)(=O)Nc2ccc(N3CCOCC3)cc2)cc1[N+](=O)[O-]	3203	3.0	5	-12
63	COc1cc2nc(SCc3c(C)noc3C)n(CCC3=CCCCC3)c(=O)c2cc1OC	3742	2.4	4	-21
64	CCC(=NNC(=O)c1csc(C)c1C)c1cccs1	·	-1.0	·	·
65	Cc1ccc(C)c(C(=O)CN2C(=O)NC3(CCc4ccccc43)C2=O)c1 (configuration not stated)	5258	1.2	·	-28
66	O=C(Cc1ccccc1)NCC(=O)NN=Cc1ccc(C(=O)O)cc1	·	2.2	·	·
67	N#Cc1ccc(-c2cccnc2)nc1SCC(=O)Nc1sc2c(c1C#N)CCC2	10688	-0.7	9	-13
68	Cc1ccc(NC(=O)Nc2ccc3c(c2)OCO3)cc1F	5578	-0.7	-9	-77

cpd	Mtb hypoxia inh	Mtb hypoxia inh growth	Sa ugtP lethal
61	-6	2	0
62	21	-2	8
63	-9	17	-19
64	9	14	3
65	2	8	2
66	-1	6	0
67	7	13	-1
68	-8	16	-4

# Compound activity (PubChem)
